Source: PubChem (several laboratories)
CBX7 inh: CBX7 inhibition, primary AlphaScreen. O95931. AlphaScreen His6-CBX7 / biotin-H3K27me3 peptide binding; hits give low values. normalised signal (fraction of DMSO) (test concentration not listed). 1.1% of 66,000 active; in the data active = normalised signal below about 0.5;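 also: 100 nL library stock added to about 20 µL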
Target sequence (O95931 whole entry, looked up): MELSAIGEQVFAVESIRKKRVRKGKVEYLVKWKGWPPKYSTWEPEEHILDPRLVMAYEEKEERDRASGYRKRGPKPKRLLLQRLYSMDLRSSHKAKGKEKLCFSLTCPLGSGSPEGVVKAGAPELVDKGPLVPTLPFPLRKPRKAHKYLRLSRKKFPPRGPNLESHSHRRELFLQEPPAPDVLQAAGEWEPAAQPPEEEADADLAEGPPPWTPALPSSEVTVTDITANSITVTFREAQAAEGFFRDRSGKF
CBX7 inh z-score: also measured in CBX7 inh; calls as there; z-score; measured here: z-score of CBX7 signal; some inactives read as strong as hits; reference of the scale not given here;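 same signal on another scale; lower means less binding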
Numbers without * were called inactive; & = joins results of further samples.

The line under a structure holds: CBX7 inh, CBX7 inh z-score
CCOC(=O)c1cnc2c(C(F)(F)F)cccc2c1Nc1cccc(C(=O)OC)c1
    1.23, 8.03
Cc1cc2cc(CCNC(=O)COc3ccc(Cl)cc3)c(=O)[nH]c2cc1C
    0.975, -1.12
COc1ccc(-c2nnc(NC(=O)c3ccc(S(=O)(=O)N(C)C)cc3)o2)c(OC)c1
    0.582, -9.44
O=C(NCC1CCCO1)c1cc(-c2ccncc2)nc2ccccc12 (stereo not drawn)
    1.01, 0.15
COc1ccccc1Cc1nc2ccccc2[nH]c1=O
    0.977, -0.701
C=CCn1c(C(C)NC(=O)c2ccccc2OC)nc2ccccc21 (stereo not drawn)
    1.06, 0.896
Cc1cc(NS(=O)(=O)c2ccc(Nc3nc(-c4ccc(Cl)c(Cl)c4)cs3)cc2)no1
    0.737, -0.31
O=C(Nc1ccccc1-c1nc2ccccc2s1)c1ccccc1Cl
    1.01, 0.317
Cc1cccc(C)c1NC(=O)C1CCCN(C(=O)c2cnn(-c3ccccc3)c2-n2cccc2)C1 (stereo not drawn)
    0.988, -0.618
CC(=O)Oc1cccc(C(=O)Nc2ccc(-c3nc4ccccc4o3)cc2)c1
    0.954, -1.64
Cc1ccc(S(=O)(=O)N2C(=O)CCC2C(=O)NCCOc2ccccc2C)cc1 (stereo not drawn)
    1.13, 2.56
CCOC(=O)c1c(NC(=O)CN2CCCCC2)sc2c1CCCC2O (stereo not drawn)
    0.963, -0.572
Clc1ccc2nc(Nc3nc4ccccc4[nH]3)nc(-c3ccccc3)c2c1
    0.595, -4.28
O=C(c1ccc(F)cc1)N1CCc2[nH]c3ccc(F)cc3c2C1
    0.971, -0.42
CCOc1ccccc1C1CC(=O)Nc2cc(C)c(C)cc21 (stereo not drawn)
    0.948, -0.106
Cc1ccn2c(-c3csc(Nc4ccc(Cl)cc4)n3)c(C)nc2c1
    0.802&1.08, -2.28&0.0869
Cc1ccc2c(Cl)c(C(=O)Nc3c(C(=O)c4ccccc4)oc4ccccc34)sc2c1
    1.05, 0.24
CCc1cccc(NC2c3ccccc3C(=O)N2c2ccccn2)c1 (stereo not drawn)
    1.06, 1.99
COc1ccc(-n2c(Cc3cc(=O)[nH]c(=O)[nH]3)nnc2SCc2ccccc2F)cc1
    0.814, -2.84
O=c1cc(N2CCc3ccccc32)[nH]c(=O)n1Cc1ccc(F)cc1
    0.963, -0.709

Looked up above:
CBX7 inh result of `CCOC(=O)c1c(NC(=O)CN2CCCCC2)sc2c1CCCC2O` (stereo not drawn) is entered as 0.963
CBX7 inh z-score result of `Cc1ccn2c(-c3csc(Nc4ccc(Cl)cc4)n3)c(C)nc2c1` is entered as -2.28&0.0869

Continuation.
The line under a structure holds: CBX7 inh, CBX7 inh z-score
Cc1cccc(Nc2nnc(-c3ccc(C)c(S(=O)(=O)N(C)C)c3)c3ccccc23)c1
    0.917, -1.57
CCCCOc1ccc(-c2nc(-c3ccccc3Cl)no2)cc1
    1.44, 18.2
COc1ccc(C(=O)CN2C3=NCCCN3c3ccccc32)cc1OC
    0.793, -2.26
Cc1ccc(CNC(=O)C2CCN(S(=O)(=O)c3ccccc3)CC2)cc1
    1.02, 0.381
O=C(Cc1cn(Cc2cccc(Cl)c2)c2ccccc12)NC1CCCCC1
    1.03, 0.57
COc1ccccc1Nc1ncnc2c1cnn2Cc1ccccc1
    0.623, -1.49
COc1cccc(NC(=O)C2CC(=O)N(c3ccc(C)cc3)C2)c1 (stereo not drawn)
    1.01, 0.257
Cc1ccc2c(c1)C(c1ccc(F)cc1)N(C(=O)COc1ccc(Cl)cc1)CC(=O)N2 (stereo not drawn)
    0.73, -4.91
O=C(COCc1cc(-c2ccc(F)cc2)on1)NCC1CCCO1 (stereo not drawn)
    0.903, -0.961
COc1ccc(-c2cc(C(F)(F)F)nc(-n3cc(C)cn3)n2)cc1
    1.26, 1.69

3 entries from above, sorted by molecular weight, lowest first:
The line under a structure holds: CBX7 inh, CBX7 inh z-score
COc1ccccc1Cc1nc2ccccc2[nH]c1=O
    0.977, -0.701
C=CCn1c(C(C)NC(=O)c2ccccc2OC)nc2ccccc21 (stereo not drawn)
    1.06, 0.896
Cc1ccc2c(Cl)c(C(=O)Nc3c(C(=O)c4ccccc4)oc4ccccc34)sc2c1
    1.05, 0.24

Additional compounds follow.
The line under a structure holds: CBX7 inh, CBX7 inh z-score
CCCCCCCNC(=O)c1ccc(CNS(=O)(=O)c2ccc(C)cc2)cc1
    1.02, 0.28
C1=C(c2ccccc2)Nc2ccccc2SC1c1ccc2c(c1)OCO2 (stereo not drawn)
    0.606, -7.42
COc1ccc(-c2noc(/C=C/c3ccc(OC)c(OC)c3)n2)cc1
    1.15, 1.88
O=c1cc(C2CCNCC2)nc2cc(-c3ccc(Cl)cc3)[nH]n12
    1.04, 1.09
COC(=O)c1c(NC(=O)COc2cc(C)c(Cl)c(C)c2)sc2c1CCC(C)C2 (stereo not drawn)
    1.03, 0.526
CCOc1cc2c(cc1OCC)C(c1ccc(F)c(Oc3ccccc3)c1)NCC2 (stereo not drawn)
    0.875, -2.11
COCCCN1C(=O)N(c2ccccc2)C(=O)C1CC(=O)Nc1ccccc1 (stereo not drawn)
    1.45, 1.82
CCCCNC(=O)c1ccc2c(c1)N(CC)C(=O)CS2
    1.02, 0.628
COc1ccccc1Oc1cc([N+](=O)[O-])cc2c1C(=O)Nc1ccccc1O2
    0.761, -3.46
CCN1CCN(Cc2c(C)[nH]c3ccc(C)cc3c2=O)CC1
    1.12, 2.1

Later entries
structure	CBX7 inh	CBX7 inh z-score
COc1cc(OC)cc(-c2nc3nc(C)c(CCC(=O)NCCC4=CCCCC4)c(C)n3n2)c1	0.943	-0.247
O=C(Nc1ccc(-c2nc3ccccc3o2)c(O)c1)c1cccc(I)c1	1.04	0.742
Cc1cccc(C(=O)NCCc2nc3ccccc3n2C(C)C)c1	0.981	-0.907
CC1(C)CC(=O)N(CC(=O)NCc2ccc3c(c2)OCO3)c2ccccc2S1	1	0.0635
O=C(O)CCC(=O)N1CCc2cc(S(=O)(=O)NCCC3=CCCCC3)ccc21	0.828	-2.83
Cc1ccc(NC(=O)c2cc(-c3ccc(Br)cc3)on2)cc1	1.03	1.11
Cc1c(C(=O)NC2CC2)oc2ccc(S(=O)(=O)N3CC(C)CC(C)C3)cc12 (stereo not drawn)	1.15	0.687
CCOC(=O)c1ccccc1NC(=O)CSc1nnc(Cc2cccn2C)n1-c1ccc(C)cc1	0.764	-5.63
O=C(NCc1ccccn1)c1ccc2c(c1)N(Cc1ccccc1)C(=O)c1ccccc1S2(=O)=O	0.792	-5.31
NC(=O)c1cc2nc(-c3ccco3)cc(C(F)(F)F)n2n1	0.971	-0.384
O=[N+]([O-])c1ccc(S(=O)(=O)N2CCCCCC2)cc1	0.87	-2.22
Cc1ccc(S(=O)(=O)Nc2ccccc2CNc2nc3ccccc3n2C(C)C)cc1	0.978	-0.141
CCOc1ccc(C(=O)Nc2ccccc2C)cc1Br	1.11	1.18
COc1ccc(-n2cc(C(=O)NCCCN3CCOCC3)c3ccccc3c2=O)cc1	1.02	0.536
COc1ccc(-c2nn(C)c3sc(C(=O)N4CCCCC4)cc23)cc1OC	0.892	-1.39

Record cards (already shown). Screens in order: CBX7 inh, CBX7 inh z-score
Listed for NC(=O)c1cc2nc(-c3ccco3)cc(C(F)(F)F)n2n1 → 0.971, -0.384
Listed for Cc1ccc2c(c1)C(c1ccc(F)cc1)N(C(=O)COc1ccc(Cl)cc1)CC(=O)N2 (stereo not drawn) → 0.73, -4.91
Listed for O=C(NCC1CCCO1)c1cc(-c2ccncc2)nc2ccccc12 (stereo not drawn) → 1.01, 0.15
Listed for CCOc1cc2c(cc1OCC)C(c1ccc(F)c(Oc3ccccc3)c1)NCC2 (stereo not drawn) → 0.875, -2.11
Listed for C1=C(c2ccccc2)Nc2ccccc2SC1c1ccc2c(c1)OCO2 (stereo not drawn) → 0.606, -7.42

(more compounds)
structure	CBX7 inh	CBX7 inh z-score
COc1ccc(-c2noc(Cc3ccccc3)n2)cc1	1.23	8.22
CC1CC(C)CN(CCCNC(=O)CCc2nc(-c3ccccc3F)no2)C1 (stereo not drawn)	1.01	0.244
O=C1CN(C(=O)c2ccc(S(=O)(=O)N3CCCC3)cc2)C(c2ccccc2)c2cc(F)ccc2N1 (stereo not drawn)	0.894	-0.22
O=C(C1CCC(CNS(=O)(=O)c2cccc3cccnc23)CC1)N1CCCCC1 (stereo not drawn)	1.03	1.21
COc1ccccc1C(=O)Nc1nsc(-c2ccccc2)n1	0.768	-2.51
CC(C)=C1C2C=CC1C1C(=O)NC(=O)C21 (stereo not drawn)	0.955	-0.536
COc1ccc(C)cc1-n1cnc2cc(C(=O)NC3CCCC(C)C3C)ccc21 (stereo not drawn)	0.631	-6.4
COc1ccc(OC)c(C2=NOC(C(=O)Nc3cccc(C(F)(F)F)c3)C2)c1 (stereo not drawn)	1.05	1.74
CC1CCCCC1NC(=O)CCn1nc(-c2ccccc2)ccc1=O (stereo not drawn)	1.2	0.409
COc1cc2ccccc2cc1C(=O)Nc1ccc(Cl)c(-c2nc3cc(C)ccc3o2)c1	1.1	1.89
Cc1cccc(NC(=O)c2cc3ccccc3oc2=O)n1	0.899	-1.3
CCN(CCCNC(=O)C(C)N1C(=O)COc2ccc(C)cc21)c1ccccc1 (stereo not drawn)	0.631	-6.67
O=C(Nc1nc2c(s1)CCCC2)C(=O)c1c[nH]c2ccccc12	0.961	-0.498
O=C(CSc1nc(-c2ccccc2)c(-c2ccccc2)[nH]1)Nc1ccccc1-c1ccccc1	1.21	1.54
COc1cc2c(C(=O)NCCN3CCOCC3)cn(C)c(=O)c2cc1OC	1.08	1.09
O=C(O)C1CCN(c2nnc(-n3cccc3)s2)CC1	1.01	0.189
CCN1CCN(c2cc(C)nc(-c3ccccc3O)n2)CC1	1.03	0.498
CCN(CC)S(=O)(=O)c1ccc2oc(C(=O)Nc3ccc(F)c(Cl)c3)c(C)c2c1	0.998	-0.0252
COCCCNC(=O)C1c2ccccc2C(=O)N2CCc3cc(OC)c(OC)cc3C12 (stereo not drawn)	1.02	0.575
O=C(NC1CCCCCCC1)C1c2ccccc2C(=O)N1CCc1ccc(Cl)cc1 (stereo not drawn)	0.528	-16.6
Cc1ccc(Nc2nc(-c3ccc(NC(=O)CCC(=O)O)cc3)cs2)cc1	0.826	-2.07
COc1cc(C(=O)Nc2cccc(-c3nc4ncccc4o3)c2)cc(OC)c1OC	0.96	-0.48
Cc1ccc(N(CC(=O)Nc2ccc(C)cn2)S(=O)(=O)c2c(C)nn(C)c2C)cc1	1.16	1.14
Cc1cccc(C)c1N1C(=O)C2C3C=CC(C3)C2(C)C1=O (stereo not drawn)	1.09	1.02
CCn1c(C(=O)O)c(CC(=O)N(C)c2cc(Cl)c(OC)cc2OC)c2ccccc21	0.947	-1.27
CCOC(=O)c1sc2ncn(Cc3c(F)cccc3F)c(=O)c2c1C	0.893	-0.106
O=C1CN(S(=O)(=O)c2cnc[nH]2)CC(=O)N1CCc1ccccc1	0.839	-2.64
COc1ccccc1CNS(=O)(=O)c1ccc2c(c1)CCN2C(=O)C1CC1	0.98	-0.58
CCN(CC)S(=O)(=O)c1ccc2oc(C(=O)Nc3ccc(OC)cc3OC)c(C)c2c1	0.996	-0.172
COc1ccc(-c2noc(N(C)CC(=O)O)n2)cc1	1.01	0.333

3 compounds drawn at random from the list so far, as already listed:
structure	CBX7 inh	CBX7 inh z-score
CCOC(=O)c1sc2ncn(Cc3c(F)cccc3F)c(=O)c2c1C	0.893	-0.106
O=C(O)C1CCN(c2nnc(-n3cccc3)s2)CC1	1.01	0.189
Cc1cccc(C)c1N1C(=O)C2C3C=CC(C3)C2(C)C1=O (stereo not drawn)	1.09	1.02

Following part.
structure	CBX7 inh	CBX7 inh z-score
CC1CCCC(NC(=O)C2c3ccccc3C(=O)N2CCc2ccc(Cl)cc2)C1C (stereo not drawn)	1.47	3.46
Cc1ccccc1NC(=O)c1cc2n(n1)C(C(F)(F)F)CC(c1ccc3c(c1)OCO3)N2 (stereo not drawn)	0.887	-0.112
CCN1CCN(c2ccc3nnc(CCC(=O)Nc4ccc(C)c(C)c4)n3n2)CC1	1.05	0.911
O=C(Nc1ccccc1Cl)N1CCN(C/C=C/c2ccccc2)CC1	1.14	1.32
COc1ccc(C2OC[C@@H]3[C@@H](c4ccc(OC)c(OC)c4)OC[C@H]23)cc1OC (stereo partly drawn)	0.96	-0.863
CCSc1oc(-c2ccc(F)cc2)nc1S(=O)(=O)c1ccc(Cl)cc1	1.07	0.124
CCOC(=O)N1CCC(N2Cc3cccc(C(=O)Nc4cc(F)ccc4F)c3C2=O)CC1	1.15	2.39
CCN(CC)CCNC(=O)c1ccc2c(c1)N(Cc1ccc(C)cc1)C(=O)c1ccccc1S2	0.986	-0.63
Cc1ccc(C(=O)c2oc3ccccc3c2NC(=O)C(C)Oc2cc(C)cc(C)c2)cc1 (stereo not drawn)	1.12	0.413
CCOc1ccc(C(=O)Nc2cccc(-c3nc4cc(C)cc(C)c4o3)c2)cc1Br	0.938	-1.07
Cc1oc(-c2ccc(Cl)cc2)nc1CSCC(=O)NCc1cccnc1	0.939	-0.978
COc1ccccc1-n1cnc2cc(NC(C)=O)ccc21	1.03	1.16
COc1ccc(N2CCN(CC(O)COc3ccc(Cl)cc3C)CC2)cc1 (stereo not drawn)	0.978	-0.194
CCOc1ccccc1C(=O)Nc1c2c(nn1-c1ccc(F)cc1)CSC2	0.727	-4.74
Cc1cc(C)c(NC2c3ccccc3C(=O)N2Cc2ccccc2)c(C)c1 (stereo not drawn)	1.11	1.56
COc1cccc(NC(=O)c2oc3ccc(S(=O)(=O)N4CCC5(CC4)OCCO5)cc3c2C)c1	0.916	-1.16
CCCCNC(=O)c1ccc2c(c1)N(Cc1ccccc1)C(=O)CS2=O (stereo not drawn)	1.11	1.65
Cn1c2ccccc2c2c(C(=O)N3CCN(c4ccc(F)cc4)CC3)cn(C3CCCC3)c(=O)c21	0.827	-4.93
O=C(Nc1ccccc1-c1nc2ccccc2[nH]1)c1ccccc1F	1.01	0.233
Cc1cc(C(F)(F)F)c2c(-c3ccc(Cl)cc3)nn(-c3ccccc3)c2n1	1.9	13.1
O=C(NCCN1CCCCCC1)c1cc(=O)[nH]c2ccc(S(=O)(=O)N3CCCCC3)cc12	1.13	1.46
COc1ccc(-n2nc(C(=O)NCC(=O)Nc3ccccc3OC)c3ccccc3c2=O)cc1	0.897	-0.102

This is a subset; count on the stated rates, not on these rows.
